# Mtb growth: Confirmatory growth inhibition assay against Mycobacterium tuberculosis H37Rv, potency (AID 1949); 100,000 compounds, 1.6% hits; inhibition, % at 10 µg/mL, or IC50 in µg/mL where a hit was titrated; most inactive calls were filed without a number and no value below 0 was filed;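 active = confirmed in a dose series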;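 also: bacteria grown 7 days with compound before Alamar blue readout; 0% = untreated bacteria and 100% = reference antibiotic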
# Starred values were filed as active, the others as inactive; i = inactive.
SMILES,Mtb growth
C=CCN1C(=O)C2(C(C#N)=C(N)Oc3ccccc32)C(C(C)=O)=C1C (centres undefined),i
S=C(c1cn(CCOc2cccc3ccccc23)c2ccccc12)N1CCCC1,7%
Cc1cc(C)c(CSc2nnc(NC(=O)c3ccccc3Cl)s2)c(C)c1,i
O=C1CC(Sc2nc(-c3ccccc3)c3cc(Cl)ccc3n2)C(=O)N1c1ccc(F)cc1 (centres undefined),i
O=S(=O)(Nc1ccc(S(=O)(=O)N2CCCCCC2)cc1)c1ccc2c(c1)OCCO2,i
COc1cccc(NC(=S)Nc2cc(Cl)ccc2Cl)c1,i
COc1cc(NC(=O)Nc2ccc(Cl)cc2)c(C(=O)O)cc1OC,i
CCCCC(=O)Nc1ccc(I)c(C)n1,48%
COCCCNC(=S)Nc1cc(OC)c(OC)c(OC)c1,i
CC(C)(Oc1ccc(Cl)cc1)C(=O)Nc1ccc(Cl)cn1,i
Cc1ccc(NC(=O)C2CC(=O)N(c3ccc(OCc4ccccc4)cc3)C2)cc1C (centres undefined),i
COc1ccc(-c2nc(C#N)c(N3CCCCCC3)o2)cc1,i
COc1ccccc1OCc1cccc([N+](=O)[O-])c1,4%
CCOC(=O)C1C(=O)NC(N2CCOCC2)=NC1c1ccccc1 (centres undefined),i
CCN1C(=O)C(C23CC4CC(CC(C4)C2)C3)NC1=S (centres undefined),i
CC(Sc1ccccc1)C(=O)Nc1cccc(N(C)S(C)(=O)=O)c1 (centres undefined),i
O=c1[nH]c(=O)c2cnc3sc4c(c3c2[nH]1)CCCCC4,i
CCCCOc1cccc(C(=O)Nc2ccccc2C(F)(F)F)c1,5%
O=C(/C=C/c1ccccc1Cl)Nc1ncc(Cc2cccc(C(F)(F)F)c2)s1,i
Cc1cc(=O)oc2cc(OC(C)C(=O)Nc3nccs3)ccc12 (centres undefined),i
Cc1oc(-c2ccccc2Cl)cc1-c1nn2c(-c3ccco3)nnc2s1,i
Cc1sc2ncnc(Nc3ccc(F)cc3)c2c1C,i
Clc1ccccc1/C=C/c1nc(-c2ccncc2)no1,i
CCOC(=O)C1Nc2c(Cl)ccc(C(=O)O)c2C2C=CCC12 (centres undefined),0%
CCCCC(=O)NCc1cccc(CNC(=O)CCCC)c1,i

# The list continues:
SMILES,Mtb growth
O=C(CCCN1C(=O)c2cccc3cccc(c23)C1=O)N1CCN(c2ccc(F)cc2)CC1,2%
CCOc1ccc(N(C(C)C(=O)NC2CCCCCC2)S(C)(=O)=O)cc1 (centres undefined),i
O=c1c2ccccc2nc(-c2ccco2)n1CCN1CCOCC1,i
O=c1oc2ccccc2c(Nc2ccc(Cl)c(Cl)c2)c1[N+](=O)[O-],i
CCn1c(Cc2ccc(OC)cc2)nnc1SCC(=O)Nc1ccc(Br)c(C)c1,i
CC1CN(S(=O)(=O)c2cccs2)CC(C)O1 (centres undefined),i
CCc1sc(C(=O)Nc2ccc(S(=O)(=O)NC)cc2)cc1Br,i
O=C(COc1ccc(-c2ccccc2)cc1)N1CCN(S(=O)(=O)c2ccccc2[N+](=O)[O-])CC1,i
CCC(C(=O)Nc1sc(C(N)=O)c(C)c1C(=O)OC)c1ccccc1 (centres undefined),5%
CCn1c(CNC(=O)c2ccco2)nnc1SCC(=O)c1ccc(Br)cc1,i
O=C(Nc1ccccc1C(F)(F)F)C1C(c2ccccc2)C1(Cl)Cl (centres undefined),i
CN1CCN(C(=O)CN(c2ccccc2[N+](=O)[O-])S(=O)(=O)c2ccccc2)CC1,2%
COc1ccc(CCn2c(-c3ccco3)nc3ccccc3c2=O)cc1OC,i
COc1ccc(CC(=O)N2CCN(C(=O)c3ccco3)CC2)cc1,i
O=c1c2ccccc2[nH]c(=S)n1CCCN1CCN(c2ccccc2F)CC1,6%
COC(=O)c1c(NC(=O)C(C)Oc2ccc(F)cc2)sc(C(C)=O)c1C (centres undefined),1%
N#Cc1ccccc1CSc1nc2ccccc2s1,i
COc1ccc(S(=O)(=O)N(CC(=O)Nc2ccccc2C(F)(F)F)c2ccccc2OC)cc1,i
COc1ccc(-c2nnc(SCC(=O)NC(C)c3ccccc3)o2)cc1 (centres undefined),i
O=C(NCc1cccnc1)C(=O)Nc1cccc(Cl)c1Cl,i
CC(NS(=O)(=O)c1ccc([N+](=O)[O-])cc1)C12CC3CC(CC(C3)C1)C2 (centres undefined),i
Cc1ccc(SCc2ccccc2[N+](=O)[O-])cc1,1%
COc1ccc(C)cc1N(CC(=O)Nc1ccccc1Cl)S(C)(=O)=O,i
COc1ccc(C(=O)OCc2ccccc2Cl)cc1OC,i
C=CCNc1oc(-c2cccc(Cl)c2)nc1C#N,i

# Remaining list, next part:
SMILES,Mtb growth
CCOc1ccc(N(CC(=O)NC2CCCCCC2)S(=O)(=O)c2ccccc2)cc1,i
CCOC(=O)c1sc2ncn(CCCc3ccccc3)c(=O)c2c1C,i
O=C(CSCc1ccccc1Cl)NNC(=S)NCCc1ccccc1,i
CCCC(=O)Nc1ccc(C(=O)NCCc2ccc(F)cc2)cc1,i
O=c1[nH]c(/C=C/c2cccc3ccccc23)nc(O)c1[N+](=O)[O-],2.8µg/mL*
Clc1ccc(Cn2ncc3c(NCc4cccnc4)ncnc32)cc1,0%
CN(CC(=O)N1CCCC1)S(=O)(=O)c1ccc(Br)cc1,i
Cc1cc(=O)oc2cc(NC(=S)Nc3ccc(I)cc3)ccc12,i
Cc1ccc(C(=O)Nc2ccc(N3CCOCC3)c(Cl)c2)c(C)c1,i
C=CCn1c(SCC(=O)c2ccccc2)nc2scc(-c3ccc(F)cc3)c2c1=O,i
CC1CCN(S(=O)(=O)c2ccc(NC(=O)Cn3cnc4c3c(=O)n(C)c(=O)n4C)cc2)CC1,i
Cc1ccc(C(=O)NCCc2ccc(F)cc2)s1,6%
CC1SC(=NC(=O)c2ccncc2)NC1=O (centres undefined),4%
CCOc1ccc2nc(NC(=O)CSc3nc4ccc([N+](=O)[O-])cc4[nH]3)sc2c1,i
CCCCNC(=O)c1ccccc1NS(=O)(=O)c1ccc(C)cc1,i
CCOC(=O)c1sc(Nc2c(Cl)cccc2Cl)nc1C,4%
COc1ccc(S(=O)(=O)Nc2ccc(NC(C)=O)cc2)cc1Br,i
Cc1occc1C(=O)Nc1cccc(Cl)c1C,i
Cc1ccc(C2CC(=O)NC(SCC(=O)NC3CCCCC3)=C2C#N)cc1 (centres undefined),i
CN1CCC(OC(=O)c2ccc3c(c2)OCCO3)CC1,1%
c1ccc(C(c2ccccc2)c2nc(-c3ccncc3)no2)cc1,0%
CC1=C(C(=O)Nc2ccccc2C)C2(CCCCC2)C(C(N)=O)C(=S)N1 (centres undefined),i
O=C(N/N=C/c1ccccc1O)c1cccc(C(=O)N/N=C/c2ccccc2O)n1,i
CC(=O)C1=C(O)C(=O)N(CCN(C)C)C1c1ccccc1Cl (centres undefined),i
O=C(NC1CCCCCC1)c1ccc(I)cc1,i

# Next structures
SMILES,Mtb growth
O=C(Nc1ccc(I)cc1)C1CCN(C(=O)Cc2ccccc2)CC1,i
COc1ccccc1CC(=O)Nc1cc(Cl)ccc1C(=O)O,i
O=C(NC1CC1)c1ccc(Br)cc1,i
Cn1nnnc1SCc1ccc(CSc2nnnn2C)cc1,i
CCOc1ccccc1N1CCN(C(=S)Nc2ccc(S(N)(=O)=O)cc2)CC1,i
O=C(c1cc2c(s1)CCCCCC2)N1CCC2(CC1)OCCO2,i
Cc1ccc(CNC(=S)Nc2ccc(NS(=O)(=O)c3ccc(C)cc3)cc2)cc1,1%
Cc1cccc(CN2CCN(C(=O)Cc3ccccc3)CC2)c1,i
O=C(Nc1cc(C(F)(F)F)cc(C(F)(F)F)c1)c1cnsn1,0%
COC(=O)c1ccc(Cn2cc(C=O)c3ccccc32)o1,i
O=S(=O)(NCc1cccnc1)c1ccc(F)cc1,i
O=C(CS(=O)(=O)Cc1ccccc1)N1CCCc2ccccc21,1%
CC(NC(=S)NC1CCCCC1)c1ccccc1 (centres undefined),i
CCOc1cc(-c2cc(=O)c3ccccc3o2)ccc1O,49%
Clc1ccc(-c2csc3ncnc(NCc4ccc5c(c4)OCO5)c23)cc1,i
Cc1ccc([N+](=O)[O-])cc1NC(=O)CN(c1ccc(Oc2ccccc2)cc1)S(C)(=O)=O,i
CCOc1ccc(C(=O)Nc2ccc(NC(=S)NC(C)=O)cc2)cc1Br,16%
CC(C)c1ccccc1OCC(=O)Nc1ccc(S(=O)(=O)Nc2nccs2)cc1,i
COc1ccc(CC(=O)Nc2ccc(Cc3ccc(NC(=O)Cc4ccc(OC)c(OC)c4)c(O)c3)cc2O)cc1OC,i
CCCCOc1ccc(NC(=O)C(=O)NCc2ccccc2OC)cc1,i
O=C(Cc1ccccc1Cl)Nc1nncs1,i
COc1ccc(OCC(=O)Nc2ccc(-c3nc4ccccc4s3)c(Cl)c2)cc1,2%
Cc1nn(-c2ccccc2)c(=S)c2ccccc12,i
CC(=O)N1N=C(c2ccc3ccccc3c2O)CC1c1ccccc1 (centres undefined),i
COCCCNC(=O)c1ccc(CSCc2ccccc2)cc1,i

# (continued)
SMILES,Mtb growth
Clc1ccc(-n2c(SCc3nc4ccccc4s3)nnc2-c2cccs2)cc1,6%
COc1cc(C)c(N)cc1C(C)C,i
CC(C)COc1cccc(C(=O)Nc2ccc(CN3CCOCC3)cc2)c1,i
COc1cc(Br)cc2cc(C(=O)NCCCN3CCOCC3)c(=O)oc12,i
CC(=O)c1ccc(Nc2cc(C)nc3ncnn23)cc1,i
CCOc1ccc(-c2nc3s/c(=C4\C(=O)N(Cc5ccccc5F)c5ccccc54)c(=O)n3n2)cc1,i
COc1cc(S(=O)(=O)NC2CCCC2)ccc1Cl,i
Cc1ccc(CN(CC(=O)NC(C)c2ccccc2)S(=O)(=O)c2ccc(Cl)cc2)cc1 (centres undefined),i
COC(=O)CN1C(=S)N(CCc2ccccc2)C(=O)C1CC(=O)Nc1ccc(Br)cc1 (centres undefined),3%
Cc1cc(OCC(=O)Nc2nccs2)c(C(C)C)cc1Br,15%
COc1cc(C(=O)Nc2c(C)cc(C)cc2C)c(Br)c(OC)c1OC,32%
CCOC(=O)N1CCN(C(=O)CN(C)S(=O)(=O)c2ccc(F)cc2)CC1,i
COC(=O)c1ccccc1NC(=O)C1CCCN1S(=O)(=O)c1ccc(C)cc1 (centres undefined),i
S=C(NCC1CCCO1)Nc1cccc(Cn2cc(Cl)cn2)c1 (centres undefined),i
CC(=O)c1ccccc1OC(=O)c1ccco1,i
Cc1cc(C)cc(OC(C)C(=O)NCCc2ccccc2)c1 (centres undefined),i
CCOC(=O)c1sc2ncnc(NC(C)(C)C)c2c1CNC(C)(C)C,5%
CN(CC(=O)N1CCN(c2ccccc2F)CC1)S(=O)(=O)c1ccc(Br)cc1,i
COc1ccc2oc(=O)c(C(=O)N3CCCCC3)cc2c1,i
Cc1ccc(NC(=S)N2CCOCC2)cc1,i
COc1ccc(C2c3c(oc4cc(C)c(C)cc4c3=O)C(=O)N2Cc2ccc(C)cc2)cc1 (centres undefined),1%
CCOC(=O)c1c(NC(=O)COC)sc(C(C)=O)c1C,i
O=C(CSc1nnc2scc(-c3ccccc3)n12)Nc1nc(=O)c2ccccc2s1,i
O=C(O)c1cc(S(=O)(=O)N2CCOCC2)ccc1F,i
Brc1ccc(-c2nnc(-c3ccc4c(c3)OCO4)o2)o1,3%

# Next compounds follow:
SMILES,Mtb growth
O=C(CN1C(=O)c2ccccc2S1(=O)=O)Nc1ccccc1C(=O)N1CCCC1,i
COc1cc(C(=O)O/N=C(\N)c2cccnc2)cc(OC)c1OC,3%
CCn1c(SCC(=O)c2ccccc2)nnc1-c1ccccn1,i
CCn1c(SCC(=O)N2CCN(c3ccccc3)CC2)nnc1-c1ccc(C)cc1,i
N#CSc1c(NC(=O)c2ccccc2)sc2c1CCCC2,2%
CCc1nnc(NC(=O)Cn2cnc3c2c(=O)n(C)c(=O)n3C)s1,i
Cc1cc(OC(C)C)c2c(-c3ccccc3)cc(=O)oc2c1,4%
CCOC(=O)CSc1nnnn1-c1ccc(C)c(C)c1,i
CS(=O)(=O)N(CC(=O)Nc1cccc(C(F)(F)F)c1)c1ccc(Cl)cc1,i
COc1ccc(S(=O)(=O)N(CC(=O)NCc2ccccn2)c2cccc(Cl)c2)cc1,i
CC(C)CNC(=O)c1ccccc1NC(=O)c1ccccc1F,i
Cc1cc(C)n(C(=O)c2ccc(S(=O)(=O)NCC3CCCO3)cc2)n1 (centres undefined),i
NS(=O)(=O)c1ccc(NC(=O)c2ccc(Cl)cc2Cl)cc1,i
COc1ccc(N2C(=O)CC(N3CCN(CC(=O)NC(C)C)CC3)C2=O)cc1 (centres undefined),i

# Of the compounds above, 15 contain a thiophene ring, fused or not:
SMILES,Mtb growth
O=c1[nH]c(=O)c2cnc3sc4c(c3c2[nH]1)CCCCC4,i
Cc1sc2ncnc(Nc3ccc(F)cc3)c2c1C,i
CC1CN(S(=O)(=O)c2cccs2)CC(C)O1 (centres undefined),i
CCc1sc(C(=O)Nc2ccc(S(=O)(=O)NC)cc2)cc1Br,i
CCC(C(=O)Nc1sc(C(N)=O)c(C)c1C(=O)OC)c1ccccc1 (centres undefined),5%
COC(=O)c1c(NC(=O)C(C)Oc2ccc(F)cc2)sc(C(C)=O)c1C (centres undefined),1%
CCOC(=O)c1sc2ncn(CCCc3ccccc3)c(=O)c2c1C,i
C=CCn1c(SCC(=O)c2ccccc2)nc2scc(-c3ccc(F)cc3)c2c1=O,i
Cc1ccc(C(=O)NCCc2ccc(F)cc2)s1,6%
O=C(c1cc2c(s1)CCCCCC2)N1CCC2(CC1)OCCO2,i
Clc1ccc(-c2csc3ncnc(NCc4ccc5c(c4)OCO5)c23)cc1,i
Clc1ccc(-n2c(SCc3nc4ccccc4s3)nnc2-c2cccs2)cc1,6%
CCOC(=O)c1sc2ncnc(NC(C)(C)C)c2c1CNC(C)(C)C,5%
CCOC(=O)c1c(NC(=O)COC)sc(C(C)=O)c1C,i
N#CSc1c(NC(=O)c2ccccc2)sc2c1CCCC2,2%

# 2 successive records from above, quoted:
SMILES,Mtb growth
CCn1c(SCC(=O)N2CCN(c3ccccc3)CC2)nnc1-c1ccc(C)cc1,i
N#CSc1c(NC(=O)c2ccccc2)sc2c1CCCC2,2%

# Bioassay records from PubChem.

# Some of the compounds tested (hit frequency here may not be typical).
